Compound activity deposited in PubChem BioAssay by Johns Hopkins Ion Channel Center.
KCNQ2 block: KCNQ2 potassium channel inhibitors, primary screen, cell-based, CHO-K1, FluxOR thallium flux, B-score (AID 2156); 1.1% of 310,000 active; 20 min; hits give low values; only compounds with negative scores are shown here; some inactives read as strong as hits; Potassium voltage-gated channel subfamily KQT member 2 (Rattus norvegicus), O88943; B-score at 10 µM;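 active = fluorescence ratio B-score at most minus 3 library SDs, with starting brightness B-score within 2 library SDs, cut at about -5.5 in these data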
Target sequence (O88943 whole entry, looked up): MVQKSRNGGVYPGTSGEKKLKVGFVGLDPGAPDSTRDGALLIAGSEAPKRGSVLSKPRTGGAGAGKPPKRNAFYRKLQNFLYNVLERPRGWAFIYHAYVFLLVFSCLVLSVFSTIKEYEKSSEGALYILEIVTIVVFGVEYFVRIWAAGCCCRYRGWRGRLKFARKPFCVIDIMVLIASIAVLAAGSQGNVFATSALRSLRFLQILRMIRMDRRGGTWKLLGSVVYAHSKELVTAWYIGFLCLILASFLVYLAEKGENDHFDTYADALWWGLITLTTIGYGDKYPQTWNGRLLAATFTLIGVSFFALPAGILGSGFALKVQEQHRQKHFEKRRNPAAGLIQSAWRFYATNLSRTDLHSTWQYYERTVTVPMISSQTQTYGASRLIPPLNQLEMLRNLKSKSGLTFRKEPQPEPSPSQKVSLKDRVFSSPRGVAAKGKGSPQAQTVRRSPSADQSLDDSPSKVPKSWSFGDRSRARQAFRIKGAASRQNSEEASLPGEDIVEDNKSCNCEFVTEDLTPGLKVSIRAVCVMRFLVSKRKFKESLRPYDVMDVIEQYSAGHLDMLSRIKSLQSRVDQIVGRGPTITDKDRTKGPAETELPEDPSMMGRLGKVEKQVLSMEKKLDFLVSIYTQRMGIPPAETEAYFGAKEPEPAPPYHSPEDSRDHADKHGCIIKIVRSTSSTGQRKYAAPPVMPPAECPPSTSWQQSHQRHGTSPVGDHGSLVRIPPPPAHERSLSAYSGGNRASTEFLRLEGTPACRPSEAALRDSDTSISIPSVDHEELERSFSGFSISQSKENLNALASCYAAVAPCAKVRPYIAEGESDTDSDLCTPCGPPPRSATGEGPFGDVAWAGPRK
KCNQ2 block baseline: second read-out of KCNQ2 block, no call of its own (marks repeat the call); B-score; measured here: initial fluorescence intensity artifact check;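 brightness before thallium and not channel activity; 0 = typical well and far values either way flag optical interference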
An asterisk follows results filed as active; i = inactive.

SMILES	KCNQ2 block	KCNQ2 block baseline
CCOc1ccccc1C(=O)NCC(=O)Nc1ccc(-c2ccccc2)cc1	i	-2
O=C(O)CCCCCn1c(SCC(=O)Nc2ccc(F)cc2)nc2ccsc2c1=O	i	-0.74
CCN(CCO)c1nc(SC)nc2c1sc1nc(-c3ccco3)c3c(c12)CCC3	i	-1.8
Cc1cccc(CC2S/C(=N/N=C/c3ccco3)NC2=O)c1 (stereo unspecified)	i	0.02
Cc1cc(C)n2nc(-c3ccsc3-n3c(C)ccc3C)cc2n1	i	-0.69
CCCCCn1c(N2CCOCC2)nc2c1c(=O)n(CC(N)=O)c(=O)n2C	i	-1.2
CCc1ccc(C2=Nn3c(nnc3-c3cccs3)SC2)cc1	i	-0.06
CCC(=O)c1ccc(OCC(O)Cn2nnc3ccccc32)cc1 (stereo unspecified)	i	-0.39
O=C(NC1CCCC1)C(c1ccccc1F)N(C(=O)Cc1cccs1)c1ccc2c(c1)OCCO2 (stereo unspecified)	i	-0.37
CC(=O)Nc1ccc(S(=O)(=O)N(C)c2ccc(OCC(=O)OCC(=O)NCc3ccco3)cc2)cc1	i	0.17
CC(C)(C)n1nnnc1C(c1ccc(C#N)cc1)N1CCCC2(CCCCC2)C1 (stereo unspecified)	-7.1*	2.1*
CCNC(=O)CC1C(=O)N(CC)C(=S)N1NC(=O)c1cccnc1 (stereo unspecified)	i	0.88

SMILES	KCNQ2 block	KCNQ2 block baseline
COc1cc2c(cc1OC)-c1cc(NCc3ccccn3)nc(=O)n1CC2	i	0.77
CC(C)NC(=O)C1CCCN(S(=O)(=O)c2cccc3nonc23)C1 (stereo unspecified)	i	-3.8
CC(C)OC(=O)CSc1nnc(SCc2cccc3ccccc23)s1	i	-0.79
COc1ccc(C(=O)CC(=O)C(=O)Nc2cc(C)ccc2C)cc1	i	-0.43
COc1ccc(-c2cc(-c3ccccc3)nc(SC(C)C(=O)O)c2C#N)cc1 (stereo unspecified)	i	-0.59
CCCCN(C1CCS(=O)(=O)C1)S(=O)(=O)c1cccs1 (stereo unspecified)	i	0.06
Cc1ccc(OCCNC(=O)c2cccc(C)c2)cc1	i	0.05
NS(=O)(=O)c1cccc(NC(=O)Nc2ccc(Cl)cc2)c1	i	-0.03
O=S(=O)(c1ccc2nc(Cc3ccccc3)[nH]c2c1)N1CCOCC1	i	2
CN(Cc1cccc(F)c1)C(=O)C(c1ccccc1)c1ccccc1	i	0.06
Cc1ccc(NC(=O)c2ccc3c(c2)CCN3S(C)(=O)=O)cc1C	i	-0.31
CNC(=S)NNC(=O)c1cccc(N(C)C)c1	i	-0.67

SMILES	KCNQ2 block	KCNQ2 block baseline
Cc1ccc(S(=O)(=O)c2nc(-c3ccccc3)oc2NCCN2CCOCC2)cc1	i	0.11
O=C(c1ccc(S(=O)(=O)c2ccccc2)cc1)N1CCCCCC1	i	2.4
CC(/C=C/C1(O)C(C)CC(=O)CC1(C)C)OC1OC(CO)C(O)C(O)C1O (stereo unspecified)	i	-1.8
O=C1N[C@@H](Cc2cn(S(=O)(=O)c3ccccc3)c3ccccc23)C(=O)N[C@H]1Cc1ccccc1	i	-2
CN1C(=O)C(O)(CC(=O)/C=C/c2ccco2)c2cc(Br)ccc21 (stereo unspecified)	i	0.21
COc1ccc(NC(=O)c2ccc3c(c2)CCN3S(=O)(=O)c2ccccc2)cc1	i	-0.32
Cc1ccc(NC(=S)Nc2cccnc2)c(S(=O)(=O)N2CCCCC2)c1	i	-1.1
O=C(CSc1ncccn1)N/N=C/c1cccs1	i	-0.03
Cc1cc(C)n(-c2ccc(C(=O)NCc3cccs3)cc2)n1	i	-1.1
CC1(C)CC(=O)C(N=Nc2cc(C(F)(F)F)ccc2Cl)=C(O)C1	i	-0.91
COc1ccc(Cl)cc1NC(=S)NC(=O)c1ccc2c(c1)OCO2	i	-0.26
COc1ccc(-c2cc3c(=O)n(CC(=O)NCc4cccnc4)nc(C)n3n2)cc1	i	0.05

SMILES	KCNQ2 block	KCNQ2 block baseline
COc1ccc(C2C(C(=O)O)c3ccccc3C(=O)N2C)cc1Br (stereo unspecified)	i	-2.9
COc1ccc(-n2c(N)c(C(=O)NCC3CCCO3)sc2=S)cc1 (stereo unspecified)	i	-0.85
CCCNC(=S)N1CCN(c2nc(C)nc3sc4c(c23)CCCC4)CC1	i	1.4
O=C(NC(=S)Nc1ccc(CN2CCOCC2)cc1)c1cc2ccccc2o1	i	0.93
C/C(Cl)=C\Cn1c(NCCc2ccccc2)nc2c1c(=O)n(C)c(=O)n2C	i	-0.42
CCN(CC)S(=O)(=O)c1ccc(N2CCOCC2)c(NCC(=O)Nc2ccc(F)cc2)c1	i	1.3
Cc1cc(-n2c(C)cc(C(=O)CSc3ccc4c(c3)OCCO4)c2C)no1	-6.9*	0.89*
Cc1nn(C)c(C(=O)Sc2cccc(Cl)c2)c1[N+](=O)[O-]	-9.7*	-2.3*
S=C(NCc1ccccn1)Nc1cccc(Cl)c1	i	-0.05
CSc1ccc(CN(C)Cc2cc(=O)oc3c(C)c(C)ccc23)cc1	i	-0.9
Cc1cccn2c(=O)c(/C=C(\C#N)C(N)=O)c(N3CCN(c4ccccc4)CC3)nc12	i	-0.28
CCN1CCN(c2c(Cl)cccc2NC(=O)c2cccs2)CC1	i	2.2

Filtered by structure, the entries above containing two or more sulfur atoms.
SMILES	KCNQ2 block	KCNQ2 block baseline
O=C(O)CCCCCn1c(SCC(=O)Nc2ccc(F)cc2)nc2ccsc2c1=O	i	-0.74
CCN(CCO)c1nc(SC)nc2c1sc1nc(-c3ccco3)c3c(c12)CCC3	i	-1.8
CCc1ccc(C2=Nn3c(nnc3-c3cccs3)SC2)cc1	i	-0.06
CC(C)OC(=O)CSc1nnc(SCc2cccc3ccccc23)s1	i	-0.79
CCCCN(C1CCS(=O)(=O)C1)S(=O)(=O)c1cccs1 (stereo unspecified)	i	0.06
Cc1ccc(NC(=S)Nc2cccnc2)c(S(=O)(=O)N2CCCCC2)c1	i	-1.1
O=C(CSc1ncccn1)N/N=C/c1cccs1	i	-0.03
COc1ccc(-n2c(N)c(C(=O)NCC3CCCO3)sc2=S)cc1 (stereo unspecified)	i	-0.85
CCCNC(=S)N1CCN(c2nc(C)nc3sc4c(c23)CCCC4)CC1	i	1.4

Remaining list, next part
SMILES	KCNQ2 block	KCNQ2 block baseline
CC(c1ccccc1)C1CC(=O)N(Cc2ccco2)C1=O (stereo unspecified)	i	-0.34
C=C(C)COc1ccc(-c2n[nH]c(C)c2Oc2ccccc2OC)c(O)c1	i	-0.98
COc1ccc(NC(=O)N2CCC(CO)(CC3CCCCO3)CC2)c(OC)c1 (stereo unspecified)	i	0.65
Cc1cccc(N2CCN(C(=O)c3ccc(Cl)c(S(=O)(=O)N4CCc5ccccc5C4)c3)CC2)c1C	i	-1.9
Cc1ccc(NC(=O)c2cccc(C(=O)Nc3ccc(C)cc3C(=O)O)c2)c(C(=O)O)c1	i	1.4
Cc1ccc(-c2nnc(SCC(=O)NNC(=O)COc3ccccc3C)n2C)cc1	i	-0.58
CC(C)c1ccc(/C=C/C(=O)Nc2nncs2)cc1	i	2.1
O=C(NCc1nc2ccccc2[nH]1)C1=C[C@@H](c2ccccc2)C[C@@H](OCc2ccc(CO)cc2)O1	i	-0.1
CCOC(=O)c1ccc(S(=O)(=O)NCCN2CCOCC2)cc1	i	1.8
CCOC(=O)c1c(C)[nH]c(C(=O)OCC(=O)Nc2ccc(OCC)cc2)c1C	i	0.62
CCOc1ccc(CC(=O)N2CCC3(CC2)NCCc2[nH]cnc23)cc1	i	0.21
Clc1cc(Cl)cc(C2=NC(Cc3ccccc3)CO2)c1 (stereo unspecified)	i	-1.2

SMILES	KCNQ2 block	KCNQ2 block baseline
Cc1ccc(C)c(NS(=O)(=O)c2cc(C(=O)NCCC3=CCCCC3)ccc2C)c1	i	0.37
CCN1CCc2c(OCC(=O)N3CCCc4ccccc43)cccc2C1=O	i	-2
CCOc1ccccc1C(=O)NCC(=O)OCC(=O)NCCc1ccc(S(N)(=O)=O)cc1	i	-0.78
O=C(Nc1ccccc1Oc1cccnc1)C1CCCN(Cc2cccc(Cl)c2)C1 (stereo unspecified)	i	-0.66
CCOC(=O)C1=C(COC(=O)C2(C)CC2(Cl)Cl)NC(=O)NC1c1ccccc1 (stereo unspecified)	i	-0.1
CC(C)(C)c1cc(NC(=O)c2cccc([N+](=O)[O-])c2)no1	i	-0.09
COC(=O)c1ccc2c(c1)C(C)(C)C(/C=C/c1ccc(O)cc1)=[N+]2C	i	13
CN(Cc1ccccc1)S(=O)(=O)c1ccc(Cl)c(C(=O)NCCc2ccccn2)c1	i	-0.92
C/C(=N\Nc1ccc(F)cc1F)c1ccc(F)cc1	i	-0.05
NC(=O)CSc1nc(C23CC4CC(CC(C4)C2)C3)nc2ccccc12	i	-0.11
COc1ccc(NC(=S)Nc2nc(CC(=O)Nc3ccccc3OC)cs2)cc1	i	-0.34
CN(C)CCCN(C(=O)c1ccc(S(=O)(=O)N2CCc3ccccc32)cc1)c1nc2ccc(Cl)cc2s1	i	0.14

SMILES	KCNQ2 block	KCNQ2 block baseline
CN(C(=O)c1cc(COc2ccc(F)cc2Cl)on1)C1CCCc2ccccc21 (stereo unspecified)	i	-0.93
Cc1ccc(N2CC(=O)N(NC(=O)CN3CCN(c4ccccc4)CC3)CC2=O)cc1	i	2.6
CCCCNC(=O)CCn1c(=O)c2ccccc2n(CC(=O)N2CC(C)CC(C)C2)c1=O (stereo unspecified)	i	0.45
Cc1ccccc1CC(=O)NC1CCN(Cc2ccccc2)CC1	i	0.5
Cc1ccc(S(=O)(=O)N(CC(=O)O)Cc2ccccc2)cc1	i	0.12
Cc1cccc(C)c1NC(=S)NCc1ccccc1	i	1.8
Cc1cccc(OCc2n(CC(=O)OC3CC(C)CCC3C(C)C)c3ccccc3[n+]2C)c1 (stereo unspecified)	-6.3*	1*
Cc1ccc(N2C(=O)C3C4C=CC(C4)C3C2=O)cc1 (stereo unspecified)	i	-1.6
Cc1ccc2nc(NCC(=O)NN)nc(-c3ccccc3)c2c1	i	-0.04
COc1ccc(-c2nc(CN3CCC(c4ccccc4)CC3)c(C)o2)cc1OC	i	-1.2
Cc1c(C(=O)Nc2ccc(C(=O)O)cc2)cnn1C	i	3.2
COC(=O)C1C(=O)C2=C(CC1C)NC(C)=C(C(=O)OC(C)C)C2c1ccc(C)o1 (stereo unspecified)	i	0.41

SMILES	KCNQ2 block	KCNQ2 block baseline
O=C(CCCc1nc2ccccc2s1)NC1CCOC1=O (stereo unspecified)	i	-0.56
O=S1(=O)CC(O)C(Nc2ccccc2Cl)C1 (stereo unspecified)	i	1.5
Cc1ccccc1-c1nnn(CC(=O)NCc2ccc3c(c2)OCO3)n1	i	-0.46
CCOC(=O)c1ccc(CNC(=O)CSc2nnc(-c3ccncc3)o2)cc1	i	-1.3
CCOC(=O)C(O)(C1C(=O)CC(C)(C)CC1=O)C(F)(F)F (stereo unspecified)	i	0.15
COc1ccc(N(C)C(=O)c2ccc3c(c2)nnn3C)cc1	i	0.55
CCCc1cc(C(=O)Nc2c(C)n(C)n(-c3ccccc3)c2=O)no1	i	1.2
Cc1cc(C)c(-n2[nH]nnc2=S)c(C)c1	i	0.46
O=C(NCC(=O)N1CCCCCC1)c1ccc(Cl)cc1	i	0.44
CCCC(=O)Nc1ccc2c(c1)nc(CN1CCN(C(=O)OCC)CC1)n2C	i	2.1
Cc1cc(C)nc(N/N=C/c2c(C)oc3ccccc23)n1	i	-0.14
Cc1sc(NC(=O)c2ccco2)nc1-c1ccc2c(c1)CC(C)N2C(=O)C1CC1 (stereo unspecified)	i	-0.99

Already shown: 2 of the compounds above.
SMILES	KCNQ2 block	KCNQ2 block baseline
O=C(CCCc1nc2ccccc2s1)NC1CCOC1=O (stereo unspecified)	i	-0.56
O=S1(=O)CC(O)C(Nc2ccccc2Cl)C1 (stereo unspecified)	i	1.5

Further compounds.
SMILES	KCNQ2 block	KCNQ2 block baseline
S=C(NCC1CCCO1)n1nnc2ccccc21 (stereo unspecified)	i	-1.4
CCOc1ccc(-c2nn3c(-c4ccccc4)nnc3s2)cc1	i	0.02
Fc1ccc(/C=N/n2c(COc3ccccc3)n[nH]c2=S)cc1	i	-1.6
COC(=O)C1NN=C(C(=O)c2ccc(Cl)cc2)C1c1ccc(OC)cc1 (stereo unspecified)	i	-0.75
COc1ccc(/C=C2\Oc3cc(OCC(=O)N4CCC(C(=O)O)CC4)ccc3C2=O)c(OC)c1	i	5.8
CC(C)(C)C(=O)Nc1ccccc1-c1nc2ccccc2[nH]c1=O	i	0.58
CCOC(=O)c1[nH]c(C)c(C(=O)OC(C)C(=O)Nc2ncc(Cl)cc2Cl)c1C (stereo unspecified)	i	1.1
CCOC(=O)N1CCN(C(=O)c2ccc3c(=O)n(-c4ccc(F)cc4)c(=S)[nH]c3c2)CC1	i	-1.1
COC(=O)[C@H](Cc1ccccc1)NC(=O)NCCc1ccc(OC)cc1	i	0.82
Cc1cccc(C)c1OC(=O)CCN1C(=O)C2C3C=CC(C4CC34)C2C1=O (stereo unspecified)	i	0.32
O=C(COc1ccc(S(=O)(=O)NC2CCCCC2)cc1)Nc1ccc2c(c1)OCCO2	i	0.65
COc1ccc(CCNC(=O)CN(c2cc(OC)ccc2OC)S(=O)(=O)c2ccccc2)cc1	i	-1.7
COc1ccc(S(=O)(=O)N2CCOC2CNC(=O)C(=O)NCc2ccccn2)cc1C (stereo unspecified)	i	-1.2
CCc1ccc(C(=O)CSc2nc3cc(S(=O)(=O)N4CCOCC4)ccc3n2CC)cc1	i	-0.09
Cn1cccc1/C=N/N1CCN(Cc2cccc3ccccc23)CC1	i	0.98

Only part of the results is shown; rates above refer to the full screens.
